rRNA inh HTS – inhibitors of bacterial rRNA selective over humanized ribosomes; 350,000 tested, 1.6% active; E. coli WT GFP vs humanized-ribosome RFP mutants, fluorescence, 24 h; stronger effect = lower value; DMSO median 0, no signal -100; GFP signal change (wild-type ribosome), % (test concentration not listed);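 active = significant combined selectivity score with lowered wild-type GFP, culture density cut under 30%, mutant RFP and density less affected; inactive = any of these conditions unmet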; note: one replicate is shown; some compounds called inactive have numbers as strong as hits
FGF22 binding – shifts melting point of recombinant human FGF22. Q9HCT0. recombinant FGF22 thermal shift, SYPRO orange fluorescence; percent of sucrose octasulfate shift, DMSO zero. calls only at 9.99 µM. 340,000 tested, 1.5% active;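 active = melting point raised past a set limit in the mean and every replicate; three in four hits are not shown here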
Target sequence (Q9HCT0 whole entry, looked up): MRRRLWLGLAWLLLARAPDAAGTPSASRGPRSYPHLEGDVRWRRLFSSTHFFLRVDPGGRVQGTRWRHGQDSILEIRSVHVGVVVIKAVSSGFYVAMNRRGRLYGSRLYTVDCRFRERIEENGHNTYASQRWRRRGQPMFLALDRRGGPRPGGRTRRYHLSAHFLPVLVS
AF4-AF9 inh – blocks AF4 peptide binding to human AF9 | inhibition, % at 10 µM | AlphaScreen, biotin-AF4 peptide binding to FLAG-AF9 | 350,000 tested, 0.47% active | AID 651704;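 active = every replicate reaching a set inhibition limit, whatever the replicate mean, cut at about 25% in these data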;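 note: 0% = plate neutral control median and 100% = total signal loss; the record names both 10 and 1 µM as test concentration; the first replicate is given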
Target sequence (P42568 whole entry, looked up): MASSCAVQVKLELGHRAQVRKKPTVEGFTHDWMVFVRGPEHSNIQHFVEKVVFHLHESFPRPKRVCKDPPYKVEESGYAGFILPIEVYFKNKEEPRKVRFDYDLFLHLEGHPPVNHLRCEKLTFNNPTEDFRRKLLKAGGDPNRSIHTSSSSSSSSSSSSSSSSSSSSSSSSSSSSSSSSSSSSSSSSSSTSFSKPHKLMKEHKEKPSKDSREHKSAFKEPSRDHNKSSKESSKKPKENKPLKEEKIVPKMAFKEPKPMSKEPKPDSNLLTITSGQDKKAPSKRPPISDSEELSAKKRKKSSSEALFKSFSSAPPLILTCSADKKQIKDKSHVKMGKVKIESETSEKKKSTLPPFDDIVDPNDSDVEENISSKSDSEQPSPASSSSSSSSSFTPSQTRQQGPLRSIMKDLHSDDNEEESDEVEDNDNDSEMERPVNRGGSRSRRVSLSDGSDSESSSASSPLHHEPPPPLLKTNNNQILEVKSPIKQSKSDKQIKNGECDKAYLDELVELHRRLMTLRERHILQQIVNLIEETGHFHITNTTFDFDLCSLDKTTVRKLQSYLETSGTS
rRNA inh HTS OD600 – second read-out of rRNA inh HTS, no call of its own (marks repeat the call); OD600 change, %; measured here: OD600 growth;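 optical density of the mix in the first replicate; 0 = DMSO median and -100 = no signal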
rRNA inh HTS RFP – further read-out of rRNA inh HTS, marked with its call; RFP signal change, %; measured here: RFP humanized mutant strains;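 first replicate; 0 = DMSO median and -100 = no signal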
Numbers without * were called inactive; i = inactive; & = joins results of further samples.

SMILES	rRNA inh HTS	rRNA inh HTS OD600	rRNA inh HTS RFP	FGF22 binding	AF4-AF9 inh
O=C(C[C@H]1CC[C@H]2[C@@H](COC[C@H](O)CN2CC2CCCCC2)O1)NCc1ccc(Cl)cc1	-2	4	0.9	i	0.1
C[C@@H]1CN([C@@H](C)CO)C(=O)c2cccc(NC(=O)NC3CCCCC3)c2O[C@H]1CN(C)S(=O)(=O)c1ccc(F)cc1	-5	2	-0.7	i	-3.1
CN(C)CCCNC(=O)C[C@@H]1CC[C@H]2[C@@H](COC[C@@H](O)CN2Cc2cccc(C(F)(F)F)c2)O1	-1	-9	2.0	i	2.2
COc1ccc(NC(=O)N2C[C@@H](O)COC[C@@H]3O[C@H](CC(=O)NC4Cc5ccccc5C4)CC[C@H]32)cc1	4	13	-0.9	i	-2.0
COc1ccc(-c2oc3c(c2C(=O)OCCO)C(OCCCO)CCC3)cc1 (stereo not given)	-4	-2	1.8	i	0.2
C[C@H]1CCCCO[C@@H](CN(C)C(=O)c2ccncc2)[C@@H](C)CN([C@@H](C)CO)C(=O)c2cc(N(C)C)ccc2O1	0	-1	-2.4	i	-0.9
COCC(=O)Nc1ccc2c(c1)C(=O)N(C)C[C@H](OC)[C@H](C)CN(Cc1ccccc1)[C@@H](C)CO2	-1	-3	-0.6	i	7.6
N#Cc1ccc(C(=O)OCC(=O)NC(=O)NC2CCCCC2)cc1	13	14	2.5	i	-3.5
Cc1cn([C@H]2C[C@H](O)[C@@H](/C=C/C(=O)NCc3ccccc3)O2)c(=O)[nH]c1=O	16	2	-2.8	i	1.6
Cc1cc2nc(-c3ccco3)c(Cc3ccccc3C(F)(F)F)n2c(C)c1Br	18	13	4.6	i	6.3
CCCNC(=O)Nc1ccc2c(c1)C(=O)N(C)[C@@H]1CC[C@H](CC(=O)NCc3ccccc3)O[C@H]1CO2	-1	-10	0.3	i	-11
Cc1noc(C)c1S(=O)(=O)Nc1ccc2c(c1)C(=O)N([C@@H](C)CO)C[C@H](C)[C@H](CN(C)CC1CCCCC1)OCCCC[C@H](C)O2	2	-6	4.2	i	5.1

Three entries from above, arranged by their value in rRNA inh HTS RFP, falling.
SMILES	rRNA inh HTS	rRNA inh HTS OD600	rRNA inh HTS RFP	FGF22 binding	AF4-AF9 inh
Cc1cc2nc(-c3ccco3)c(Cc3ccccc3C(F)(F)F)n2c(C)c1Br	18	13	4.6	i	6.3
O=C(C[C@H]1CC[C@H]2[C@@H](COC[C@H](O)CN2CC2CCCCC2)O1)NCc1ccc(Cl)cc1	-2	4	0.9	i	0.1
CCCNC(=O)Nc1ccc2c(c1)C(=O)N(C)[C@@H]1CC[C@H](CC(=O)NCc3ccccc3)O[C@H]1CO2	-1	-10	0.3	i	-11

A second format for part of the listing above:
Below each compound – rRNA inh HTS, rRNA inh HTS OD600, rRNA inh HTS RFP, FGF22 binding, AF4-AF9 inh
- Cc1cn([C@H]2C[C@H](O)[C@@H](/C=C/C(=O)NCc3ccccc3)O2)c(=O)[nH]c1=O
 : 16, 2, -2.8, i, 1.6
- Cc1cc2nc(-c3ccco3)c(Cc3ccccc3C(F)(F)F)n2c(C)c1Br
 : 18, 13, 4.6, i, 6.3
- N#Cc1ccc(C(=O)OCC(=O)NC(=O)NC2CCCCC2)cc1
 : 13, 14, 2.5, i, -3.5
- COCC(=O)Nc1ccc2c(c1)C(=O)N(C)C[C@H](OC)[C@H](C)CN(Cc1ccccc1)[C@@H](C)CO2
 : -1, -3, -0.6, i, 7.6

New compounds follow:
SMILES	rRNA inh HTS	rRNA inh HTS OD600	rRNA inh HTS RFP	FGF22 binding	AF4-AF9 inh
CCN1C[C@@H]2[C@@H]3C(=O)N(C)C(=O)[C@@H]3[C@](C)(C1=O)N2C(=O)c1ccc(F)cc1	6	20	10	i	-22
COC(=O)N(C)C[C@@H]1OCc2cn(nn2)CCCC(=O)N([C@H](C)CO)C[C@H]1C	1&-3	-7&12	-2.1&-4.0	i	-0.8&-3.1
C[C@@H]1CN([C@H](C)CO)C(=O)c2cc(Br)cnc2O[C@H]1CN(C)C(=O)Nc1ccc2c(c1)OCO2	0&3	12&7	4.6&-3.3	i	-3.4&-2.7
COc1ccccc1C#Cc1ccc([C@@H]2[C@@H](C#N)N(C(=O)C3CC3)[C@@H]2CO)cc1	1	5	0.2	i	-1.7
O=C1c2sccc2-c2cccc3cccc1c23	-20	-65	1.0	i	1.3
CCC/C=C/c1ccc(CN2C(C(C)C)C(=O)N(Cc3cn(CC4CCCCC4)nn3)CCS2(=O)=O)cc1 (stereo not given)	-3	-2	9.2	i	0.6
COc1ccc(-c2csc(C(O)c3ccc(F)cc3)n2)cn1 (stereo not given)	2	6	1.5	i	7.1
Cc1ccc(S(=O)(=O)N(C)C[C@@H]2Oc3ncc(Br)cc3C(=O)N([C@@H](C)CO)C[C@H]2C)cc1	-3	-12	-0.5	i	0.3
O=C(C[C@@H]1CC[C@@H]2[C@H](COC[C@H](O)CN2CCc2ccccc2)O1)NCCCN1CCOCC1	-1	18	-3.1	i	-3.4
O=C(C[C@@H]1CC[C@H]2[C@@H](COC[C@H](O)CN2CC2CCCCC2)O1)NCc1ccc(Cl)cc1	3	10	-5.2	i	-0.8
COc1ccc(CN(C)C[C@H]2OCCCC[C@H](C)Oc3ccc(NC(=O)NC4CCCCC4)cc3C(=O)N([C@@H](C)CO)C[C@@H]2C)cc1	4	-3	-0.8	i	4.9
CC1(C(=O)Nc2ccc(F)cc2F)CCN1C(=O)Cc1ccc(Cl)cc1Cl (stereo not given)	-10	-33	-3.6	i	-2.0
O=C(C1CCC1)N1CC(=O)N2[C@H](C1)[C@H](c1ccc(Br)cc1)[C@@H]2CO	0	6	-0.1	i	-2.4
COc1ccc(CC(=O)N[C@@H]2c3ccccc3CC[C@@H]2OCc2ccccc2)cc1	11	6	0.7	i	0.8
C[C@@H]1CN([C@H](C)CO)C(=O)c2cc(NC(=O)Nc3cccc4ccccc34)ccc2O[C@@H]1CN(C)C(=O)Nc1ccc(F)cc1	-1	5	-2.5	i	-1.2
C[C@@H]1CN([C@@H](C)CO)C(=O)c2cc(NC(=O)Nc3ccccc3)ccc2O[C@H]1CN(C)C(=O)NC1CCCCC1	2	5	-0.5	i	-1.2
O=C(C[C@@H]1C=C[C@@H](NS(=O)(=O)c2ccc(F)cc2)[C@H](CO)O1)NCCN1CCCCC1	3	4	-0.1	i	-1.2
CO[C@H]1CN(C)C(=O)c2ccc(NC(=O)NC(C)C)cc2OC[C@H](C)N(CC2CC2)C[C@@H]1C	2	0	-0.4	i	-12
C[C@@H]1CCCCO[C@H](CN(C)C(=O)Nc2ccc(C(F)(F)F)cc2)[C@H](C)CN([C@@H](C)CO)C(=O)c2cc(NS(=O)(=O)c3cn(C)cn3)ccc2O1	-40	-63	3.8	i	2.4
CCC(=O)N(C)C[C@H]1Oc2cc(-c3ccccc3OC)ccc2S(=O)(=O)N([C@H](C)CO)C[C@H]1C	-6	-10	-2.6	i	-0.5
COCC#Cc1ccc2c(c1)O[C@H](CN(C)Cc1ccncc1)[C@@H](C)CN([C@@H](C)CO)S2(=O)=O	-14	-26	3.5	i	0.0
COc1ccc(CN(C)C[C@@H]2OCCCC[C@H](C)Oc3ccc(NS(=O)(=O)c4ccc(F)cc4)cc3C(=O)N([C@H](C)CO)C[C@H]2C)cc1	1	-6	7.8	i	4.4
COCCN1C[C@@H](CO)O[C@@H](n2cnc3c(NC4CCCC4)ncnc32)C1	13	8	2.6	i	1.3
C[C@H](CO)N1C[C@H](C)[C@H](CN(C)Cc2ccncc2)OCCCC[C@H](C)Oc2ccc(NS(=O)(=O)c3ccc(Cl)cc3)cc2C1=O	-5	-26	4.3	i	-1.8
C[C@H]1CN([C@@H](C)CO)C(=O)c2cc(NC(=O)c3ccncc3)ccc2O[C@H]1CN(C)S(=O)(=O)c1cccs1	5	4	1.8	i	-2.3
O=C(O)C1=C2C(=O)Nc3cccc(c32)C2(C1)C(=O)Nc1ccccc12 (stereo not given)	-7	-4	3.4	i	1.8
CC(Sc1ccc(S(=O)(=O)N2CCCCC2)cn1)C(N)=O (stereo not given)	13	13	0.7	i	-1.9
C[C@H](CO)N1C[C@H](C)[C@@H](CN(C)Cc2ccc3c(c2)OCO3)Oc2cc(C#CCN(C)C)ccc2S1(=O)=O	-5	-9	6.3	i	8.9
Cc1ccc(Cc2c(C3CCCCC3)nc3ccc(Cl)cn23)cc1	-2	8	-1.1	i	2.9
C[C@H]1CN([C@@H](C)CO)C(=O)c2cccc(N(C)C)c2O[C@@H]1CN(C)Cc1ccc(Oc2ccccc2)cc1	-1	-2	1.8	i	8.3
COCCNC(=O)C[C@@H]1C[C@H]2c3cc(NS(=O)(=O)c4ccccc4)ccc3O[C@H]2[C@H](CO)O1	2	-6	0.5	i	-0.4
COc1ccc(NC(=O)Nc2ccc3c(c2)C(=O)N([C@@H](C)CO)C[C@H](C)[C@H](CN(C)C(=O)Nc2ccc(OC)cc2)O3)cc1	1	-3	0.3	i	0.8
O=C(NCc1ccccc1)C1Cc2c(-c3ccc4c(c3)OCO4)ccnc2O1 (stereo not given)	-12	-11	-3.2	i	0.2
C=CCn1c(SCC(=O)NC2CCCC2)nc2ccccc21	0	-8	1.8	i	-3.9
CCCNC(=O)C[C@@H]1C[C@@H]2c3cc(NC(=O)NC4CCCC4)ccc3O[C@@H]2[C@@H](CO)O1	5	7	-2.2	i	-11
Cc1ccc(S(=O)(=O)N(C)C[C@@H]2Oc3ncc(-c4ccccc4)cc3C(=O)N([C@@H](C)CO)C[C@H]2C)cc1	-19	-18	8.4	i	-2.0
Cc1ccccc1-c1csc(C(C)(O)c2ccc(F)c(F)c2)n1 (stereo not given)	-58	-78	-16	i	-6.8
CCCCCc1c(-c2ccc(OC)cc2)ncn1CCc1ccccc1OC	-31	-78	-21	i	5.6
COc1ccc(S(=O)(=O)N(C)C[C@H]2OCCCC[C@@H](C)Oc3ccc(NC(=O)Nc4ccc(C(F)(F)F)cc4)cc3C(=O)N([C@@H](C)CO)C[C@@H]2C)cc1	6	-3	-6.0	i	-9.1
COCC(=O)Nc1ccc2c(c1)OC[C@@H](C)N(Cc1cc(F)ccc1F)C[C@H](C)[C@@H](OC)CN(C)C2=O	-8	-6	4.3	i	0.8
C[C@H](NC(=O)[C@H]1[C@H](CO)[C@H]2Cn3c(cccc3=O)[C@H]2N1CCC(F)(F)F)c1ccccc1	0	4	2.1	i	-1.6
CO[C@H]1CN(C)C(=O)c2cc(NC(=O)C3CC3)ccc2OC[C@@H](C)N(C(=O)CN(C)C)C[C@@H]1C	1	6	-0.7	i	-0.2
CCCCCCCCN1C(=O)[C@@H](CC(=O)N2CCN(C(=O)OCC)CC2)C[C@@]2(C(=O)OC)C1=C[C@H](C1CCCC1)O[C@@H]2C	18	8	3.0	i	-0.8
C[C@@H]1CCCCO[C@H](CN(C)S(=O)(=O)c2cn(C)cn2)[C@H](C)CN([C@H](C)CO)C(=O)c2cc(NS(=O)(=O)c3ccc(F)cc3)ccc2O1	-1	-7	1.8	i	-2.5
COc1cccc(S(=O)(=O)Nc2ccc3c(c2)[C@H]2C[C@H](CC(=O)O)O[C@H](CO)[C@H]2O3)c1	2	4	-3.4	i	-1.0
CCc1nc2c(OCc3ccc(C(=O)N(C)C)cc3)cccn2c1N(C)C(=O)c1ccc(C)cc1	7	14	5.6	i	-2.7
CN1C(=O)c2cc(NC(=O)Nc3ccccc3F)ccc2OC[C@@H]2O[C@H](CC(=O)NCc3ccc(-c4ccccc4)cc3)CC[C@H]21	-3	13	2.2	i	-2.2
CO[C@@H]1CN(C)C(=O)c2cc(NS(=O)(=O)c3ccccc3)ccc2OC[C@H](C)N(Cc2nccs2)C[C@H]1C	-5	-11	2.5	i	-1.9
CN1C(=O)c2cc(NC(=O)NC3CCCC3)ccc2OC[C@@H]2O[C@@H](CC(=O)O)CC[C@@H]21	0	-1	-1.4	i	-2.6
CC(C)(C)c1ccc(SC2=C[C@@]3(O)CC[C@@H](O)[C@@](Sc4ccc(C(C)(C)C)cc4)(C2=O)[C@H]3O)cc1	5	-12	2.5	i	3.7
COc1ccccc1CNc1nc(Nc2ccccc2-n2cccn2)c2sccc2n1	-11	8	-7.2	i	-1.2
CC(C)NC(=O)N(C)C[C@@H]1Oc2c(NS(C)(=O)=O)cccc2C(=O)N([C@H](C)CO)C[C@@H]1C	-2	5	1.9	i	-2.9
COCC(=O)N1[C@H](C#N)[C@H](c2ccc(C3=CCCCC3)cc2)[C@H]1CO	2	0	1.5	i	-9.6
O=S1(=O)CCN(C2CCCCCC2)CC1	19	4	2.3	i	6.3
CCCNC(=O)[C@@H]1[C@@H](CO)[C@@H]2Cn3c(ccc(-c4ccc(F)cc4)c3=O)[C@H]1N2CC	1	10	-2.8	i	-0.9
C[C@H](CO)N1C[C@H](C)[C@@H](CN(C)C(=O)Cc2cccnc2)Oc2ncc(-c3ccncc3)cc2C1=O	7	-1	-1.0	i	-4.8
CCS(=O)(=O)Nc1ccc2c(c1)C(=O)N(C)[C@@H]1CC[C@H](CC(=O)Nc3ccccc3)O[C@H]1CO2	1	-7	0.5	i	1.7

Screening results deposited in PubChem by Broad Institute.

Not all compounds are listed; rates above refer to the full screens.
